RGS16-Gao: modulates binding between human RGS16 and Galphao. bead-based flow cytometry RGS16-Galphao binding, fluorescence; actives lie on both sides. binding response (% of control), % at 10 µM. 220,000 compounds, 0.38% hits;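 active = below 25% or above 175%, edge rows of some plates excepted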;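 also: Galphao activated by GDP with aluminum fluoride before binding; 100% = wells without compound and 0% = beads without RGS; some results beyond the cut were filed as inactive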
Target sequence (O15492 whole entry, looked up): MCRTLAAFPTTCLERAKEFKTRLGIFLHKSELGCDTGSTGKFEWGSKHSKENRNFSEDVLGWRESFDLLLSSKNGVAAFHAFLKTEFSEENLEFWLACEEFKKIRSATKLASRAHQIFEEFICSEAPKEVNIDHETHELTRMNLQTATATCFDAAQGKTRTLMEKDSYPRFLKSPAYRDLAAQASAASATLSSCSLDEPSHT
Target sequence (P09471 whole entry, looked up): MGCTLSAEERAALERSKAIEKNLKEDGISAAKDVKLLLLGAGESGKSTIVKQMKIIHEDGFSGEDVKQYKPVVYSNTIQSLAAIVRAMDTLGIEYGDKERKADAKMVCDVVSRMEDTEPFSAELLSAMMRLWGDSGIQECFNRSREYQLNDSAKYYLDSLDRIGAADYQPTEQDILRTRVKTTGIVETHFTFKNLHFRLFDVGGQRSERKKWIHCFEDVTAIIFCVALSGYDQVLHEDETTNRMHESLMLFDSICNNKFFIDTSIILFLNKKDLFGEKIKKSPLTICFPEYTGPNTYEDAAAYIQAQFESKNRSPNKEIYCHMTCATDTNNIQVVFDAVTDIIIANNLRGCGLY
Insulin prom inh: TRM-6 insulin promoter activity inhibition; TRM-6 cells (human fetal islet line), insulin promoter-eGFP reporter, imaging; reporter expression induced with tamoxifen; inhibition, % at 2 µM; 130,000 compounds, 0.9% hits;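 active = inhibition above the mean plus 3 SD, with well images judged a real hit on visual review, cut at about 60% in these data, passing the limit was not always enough; inconclusive = inhibition over the cutoff but images rejected on review; inactive = inhibition not above the cutoff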
PKD1 kinase inh: inhibitors of human PKD1 kinase; Q15139; PKD1 kinase fluorescence polarization assay; inhibition, %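 (about 10 µM by stock and volumes)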; 200,000 compounds, 0.056% hits; AID 797;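 active = inhibition of 50% or more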;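 also: controls were vehicle for no effect and a reference inhibitor for full effect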
GALR2 ag: GALR2 (human) receptor agonism; O43603; GALR2-expressing cells, agonist activation read-out; activation, %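 (tested at 5 µM)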; 140,000 compounds, 0.48% hits;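 active = above mean plus 3 SD of all compounds, about 5% in these data, not always enough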;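 also: 0% = vehicle buffer wells and 100% = reference agonist at full effect; tested in CHO reporter cells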
Target sequence (O43603 whole entry, looked up): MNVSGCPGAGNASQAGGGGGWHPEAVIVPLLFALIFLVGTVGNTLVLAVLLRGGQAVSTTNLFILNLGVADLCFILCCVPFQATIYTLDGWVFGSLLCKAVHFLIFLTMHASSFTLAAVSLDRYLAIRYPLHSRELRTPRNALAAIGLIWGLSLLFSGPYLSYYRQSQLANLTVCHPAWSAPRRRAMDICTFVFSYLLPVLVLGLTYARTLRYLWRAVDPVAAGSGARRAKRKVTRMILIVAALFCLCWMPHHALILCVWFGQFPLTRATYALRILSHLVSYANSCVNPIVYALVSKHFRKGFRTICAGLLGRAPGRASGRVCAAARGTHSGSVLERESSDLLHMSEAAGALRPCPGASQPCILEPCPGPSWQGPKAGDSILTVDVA
HSV augment: increases HSV replication in cells | maximum fold increase | HSV replication augmentation in cells, fold increase | 220,000 compounds, 0.005% hits;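 active = peak rise of 1.5-fold or more in the series; inconclusive = self-fluorescent or not available for retest; tested in PC3 cells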;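 also: first round at 10 µM; read as green reporter fluorescence; hits show the peak of a series up to 25 µM; 1 = signal of infected wells without compound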
Insulin prom inh cell count: further read-out of Insulin prom inh, marked with its call; normalized cell count, %; measured here: cell count, toxicity; reference of the scale not given here;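 cells exposed to compound for 48 h; stained nuclei by imaging scaled within each plate; lower means fewer cells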
HSV augment primary fold: second read-out of HSV augment, no call of its own (marks repeat the call); fold increase; compound at 10 µM; measured here: primary screen fold increase 10 uM; tested in PC3 cells;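 GFP signal in the first replicate; 1 = infected wells without compound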
An asterisk follows results filed as active; i = inactive; ? = inconclusive; . = no result given.

SMILES | RGS16-Gao | Insulin prom inh | Insulin prom inh cell count | PKD1 kinase inh | GALR2 ag | HSV augment | HSV augment primary fold
O=C(NC(Cc1ccc2c(c1)OCO2)C(=O)N1CCCC1C(=O)O)c1ccccc1 (stereo unspecified) | 91.3 | 86.7* | 125.4* | -5.5 | -3.1 | i | 0.99
COc1ccc(C(=O)Nc2ccc(N3CCOCC3)cc2)cc1OC | 103.2 | . | . | -20.0 | -2.2 | i | 0.84
CSc1nc(C)cc(NC(N)=O)n1 | 101.1 | 31.6 | 151.2 | -0.6 | -4.1 | i | 0.97
CC(C(=O)O)N1C(=O)c2cccc3cccc1c23 (stereo unspecified) | 98.7 | -90.9 | 67.3 | 7.2 | -2.6 | i | 0.92
O=C(Nc1cc(Cl)ccc1Oc1ccccc1)c1cnccn1 | 106.7 | 2.9 | 123.8 | -8.6 | -1.1 | i | 0.75
C#CCOCCOCCOCCNc1nc(N2CCN(C(=O)[C@H](CCC(=O)O)n3cc(C(N)Cc4ccc(O)cc4)nn3)CC2)nc(N2CCN(C(=O)[C@H](CCC(=O)O)n3cc(C(N)Cc4ccc(O)cc4)nn3)CC2)n1 (stereo partly specified) | 103.5 | . | . | 13.7 | . | i | 1.06
CCN(CC)CCCN=Cc1c(O)n(-c2ccc(C)cc2)c(=O)c2ccccc12 | 146.4 | . | . | . | . | i | 1.05
NC(=O)CNC(=O)C1CCCc2c1[nH]c1ccc(Cl)cc21 (stereo unspecified) | 102.5 | -33.3 | 141.1 | -8.3 | -3.0 | i | 0.79
CCCCn1c(C(C)O)nc2ccccc21 (stereo unspecified) | 100.8 | 40.0 | 115.2 | 7.8 | -0.3 | i | 1.05
O=C(NC(=S)NC1CCCCCC1)c1cncc(Br)c1 | 101.7 | -11.1 | 47.8 | -18.9 | 0.6 | i | 1.02
CCCN(CCC)CCNC(=O)Cn1cnc2sc(C)c(S(=O)(=O)N3CCOCC3)c2c1=O | . | 15.8 | 140.7 | -6.1 | -2.4 | . | .
O=S(=O)(/C=C/c1ccccc1)Oc1ccccc1 | 101.7 | -19.4 | 87.7 | -1.9 | -1.7 | i | 0.59
COc1ccc(NC(=O)c2sc(=S)[nH]c2N)cc1 | 101.9 | 0.0 | 97.3 | 10.6 | -3.0 | i | 0.65
COc1ccc(OC)c(NC(=O)CN2C(=O)c3ccccc3S2(=O)=O)c1 | 99.5 | -26.3 | 110.4 | -7.5 | 2.0 | i | 0.97
O=C(Cn1cncn1)N/N=C/c1cc([N+](=O)[O-])ccc1O | 99.3 | . | . | . | . | i | 1.29
COC(=O)C(NC(=O)c1ccccc1)=C1CCCCC1 | 106.8 | -10.0 | 98.3 | 8.6 | -0.2 | i | 0.95
CCOC(=O)C1=C(CS(=O)(=O)c2ccc(F)c(C)c2)NC(=O)NC1c1ccc(O)c(O)c1 (stereo unspecified) | 85.5 | 30.0 | 104.8 | 11.4 | -2.0 | i | 0.77
COc1ccc(C(=O)CN2CCN(c3cc(C)nc4ccccc34)CC2)cc1 | 99.8 | . | . | . | . | i | 1.22
CC(C)CC(C)NC(=O)c1ccc(C(F)(F)F)cc1 (stereo unspecified) | 97.0 | . | . | . | . | i | 1.12
CCN(C(=O)CSc1nnc(-c2ccncc2)n1-c1ccccc1)C1CCS(=O)(=O)C1 (stereo unspecified) | 100.3 | -33.3 | 96.1 | 1.2 | . | i | 1.01

Going on with the list.
SMILES | RGS16-Gao | Insulin prom inh | Insulin prom inh cell count | PKD1 kinase inh | GALR2 ag | HSV augment | HSV augment primary fold
O=c1c2ccccc2nnn1Cc1nnc(-c2ccccc2Br)o1 | 105.9 | . | . | -0.3 | -1.5 | i | 0.82
CCCC12CN3CC(C)(CN(C1)C3c1ccc([N+](=O)[O-])o1)C2=O (stereo unspecified) | 99.3 | . | . | . | . | i | 0.98
COC(=O)c1ccc(CN(C(C)=O)c2ccccc2)o1 | 93.4 | . | . | 11.5 | -2.5 | i | 1.14
CSCCC(=O)Nc1cc(S(=O)(=O)N2CCOCC2)ccc1N1CCN(C)CC1 | 113.8 | 45.5 | 68.3 | 5.0 | . | i | 1
Cc1ccc(-n2ncc(C(=O)Nc3cc(Cl)ccc3Cl)c2C2CCNCC2)cc1 | 99.6 | -5.9 | 87.9 | 3.0 | . | i | 0.68
C/C(=N\NC(=O)Nc1ccccc1)c1ccccc1 | 104.6 | . | . | -4.0 | 2.2 | i | 1.19
COc1ccc([C@H]2C(C#N)=C([S-])N[C@](C)(O)[C@@H]2[n+]2ccccc2)cc1 | 87.7 | . | . | . | . | i | 1.29
COc1ccc(NC(=O)CC2C(=O)N(Cc3ccco3)C(=S)N2C(C)C)cc1 (stereo unspecified) | 108.8 | . | . | -5.3 | . | i | 0.9
Cc1ccc(CN2C(=O)CCC2C(=O)NC2CCCC2)cc1 (stereo unspecified) | 104.0 | 68.8 | 178.6 | -5.0 | 0.0 | i | 0.96
COc1ccc(C2C(C#N)=C(N)N3C(=C2C#N)Sc2ccccc23)cc1 (stereo unspecified) | 91.0 | . | . | -1.4 | 0.0 | ? | .
Cc1cc(C)nc(SCCS(=O)(=O)Cc2ccc(Cl)cc2)n1 | 111.5 | . | . | -8.5 | -1.3 | i | 0.87
CN1CCN(S(=O)(=O)c2cccs2)CC1 | 112.2 | . | . | 6.0 | . | i | 0.59
c1ccc2c(c1)[nH]c1c3ccccc3sc21 | 119.7 | . | . | . | . | i | 0.95
Cc1ccccc1C(C(=O)NC1CCCC1)N(C(=O)Cc1cccs1)c1ccc2c(c1)OCCO2 (stereo unspecified) | 114.3 | . | . | -11.4 | -0.9 | i | 0.69
CCCCS(=O)(=O)C1CCS(=O)(=O)C1 (stereo unspecified) | 96.9 | 72.2 | 137.7 | -1.1 | 0.7 | i | 0.85
COCCN1CCn2c(nc3cc(NC(=O)c4ccc(OC)cc4)ccc32)C1 | 102.5 | . | . | -5.9 | -2.1 | i | 0.81
Cc1ccc(CNC(=O)C2CCCN(S(=O)(=O)c3c(C)noc3C)C2)cc1 (stereo unspecified) | 93.4 | -114.3 | 71.1 | -7.6 | -2.4 | i | 1.05
CCCCCCC(=O)Nc1ccc(Cl)cn1 | 99.6 | 61.5 | 105.8 | 1.8 | -0.8 | i | 0.91
COc1ccc(OC)c(/C=N/NC(=O)c2ccc(=O)[nH]n2)c1 | 103.5 | . | . | . | . | i | 0.85
C=CCNC(=O)C1CCN(c2ccc(S(=O)(=O)N3CCOCC3)cc2Cl)CC1 | 135.2 | 7.1 | 88.3 | -0.9 | . | i | 0.91

Compound profiles, from the list above. Values in the order: RGS16-Gao, Insulin prom inh, Insulin prom inh cell count, PKD1 kinase inh, GALR2 ag, HSV augment, HSV augment primary fold
COCCN1CCn2c(nc3cc(NC(=O)c4ccc(OC)cc4)ccc32)C1 in the list: 102.5, ., ., -5.9, -2.1, i, 0.81
Cc1ccccc1C(C(=O)NC1CCCC1)N(C(=O)Cc1cccs1)c1ccc2c(c1)OCCO2 (stereo unspecified) in the list: 114.3, ., ., -11.4, -0.9, i, 0.69
Cc1ccc(CNC(=O)C2CCCN(S(=O)(=O)c3c(C)noc3C)C2)cc1 (stereo unspecified) in the list: 93.4, -114.3, 71.1, -7.6, -2.4, i, 1.05
Cc1ccc(-n2ncc(C(=O)Nc3cc(Cl)ccc3Cl)c2C2CCNCC2)cc1 in the list: 99.6, -5.9, 87.9, 3.0, ., i, 0.68
COc1ccc(NC(=O)CC2C(=O)N(Cc3ccco3)C(=S)N2C(C)C)cc1 (stereo unspecified) in the list: 108.8, ., ., -5.3, ., i, 0.9

Remaining list, next part
SMILES | RGS16-Gao | Insulin prom inh | Insulin prom inh cell count | PKD1 kinase inh | GALR2 ag | HSV augment | HSV augment primary fold
COC(=O)c1ccccc1NC(=S)NC(=O)COc1ccccc1Cl | 101.3 | 44.4 | 88.6 | 7.5 | -1.0 | . | .
CCSc1nnc(NC(=O)[C@@H](NC(=O)c2ccc(C(C)(C)C)cc2)C(C)C)s1 | 56.0 | . | . | -5.2 | -1.1 | i | 0.88
Cc1noc(NS(=O)(=O)c2ccc(N/C=C\C(=O)c3ccc(Br)cc3)cc2)c1C | 108.3 | 7.1 | 110.6 | -3.9 | . | i | 1.05
COC(=O)c1ccc2c(=O)n(CC3CCCO3)c(SCC(=O)NCCc3ccc(S(N)(=O)=O)cc3)nc2c1 (stereo unspecified) | 102.4 | -7.1 | 140.1 | -5.8 | . | i | 0.91
Nc1nc2c(ncn2COCCO)c(=O)[nH]1 | 106.5 | 18.2 | 133.9 | -9.2 | -0.2 | i | 0.62
COc1ccc(CCNC(=O)C2CC(=O)N(C3CCCCCCC3)C2)cc1OC (stereo unspecified) | 97.2 | -22.9 | 184.0 | -5.2 | -1.3 | i | 0.84
Cc1noc(C)c1C(=O)N1CCN(S(=O)(=O)c2ccc(F)cc2)CC1 | 104.7 | 0.0 | 117.6 | -6.9 | . | i | 0.9
CON(C)S(=O)(=O)c1ccc2c(c1)NC(=O)C1CCCN21 (stereo unspecified) | 94.6 | -25.0 | 87.6 | -9.3 | -0.3 | i | 0.89
Cc1ccc(-c2cc(C(=O)Nc3cc(C(=O)O)ccc3C)c3ccccc3n2)cc1 | 98.1 | . | . | 7.4 | . | i | 0.94
CC(C)CC(=O)N1CCN(C(=O)c2cccc(F)c2)CC1 | 101.9 | -35.7 | 126.9 | 0.3 | -1.4 | i | 0.89
CCCCN(C)CCC(=O)Nc1ccc2c(c1)CCC2 | 95.6 | -26.7 | 136.7 | -3.2 | . | i | 0.95
Cc1cc(C(=O)NCC(c2ccco2)N(C)C)no1 (stereo unspecified) | 97.6 | 28.0 | 104.0 | -1.6 | -1.1 | i | 0.85
CCCCc1ccc(NC(=O)N[C@H](C(=O)O)C(C)CC)cc1 (stereo partly specified) | 32.6 | 34.5 | 123.1 | -5.0 | -2.6 | i | 0.9
COc1ccc(OC)c(C2CC(=O)OC3=C2C(=O)CC(C)(C)C3)c1 (stereo unspecified) | 126.7 | -17.6 | 85.2 | -6.7 | . | i | 0.84
O=C(Nc1ccccc1C(=O)NCc1cccnc1)c1ccco1 | 110.7 | 57.1 | 73.3 | -3.2 | -2.9 | i | 0.94
O=C(CSc1nnc(-c2ccccc2)n1Cc1ccccc1)N1CCOCC1 | 101.6 | 30.0 | 126.7 | -12.0 | 0.0 | i | 0.87
CC(=O)Nc1cc(S(=O)(=O)Nc2ccccc2)c(C)cc1C | 100.5 | -3.6 | 68.4 | 0.0 | -1.6 | i | 0.85
CC(=O)c1c(N2CCCC2)[nH]c(-c2ccccc2)nc1=S | 104.9 | 6.5 | 125.9 | -3.1 | -0.9 | i | 1.04
CC(C)CCNC(=S)Nc1ccccn1 | 106.1 | 38.9 | 91.4 | 2.2 | -0.6 | i | 1.12
CC(=O)NNC(=O)c1sc(=S)n(C)c1C | 101.0 | . | . | . | . | i | 1.24

(more compounds)
SMILES | RGS16-Gao | Insulin prom inh | Insulin prom inh cell count | PKD1 kinase inh | GALR2 ag | HSV augment | HSV augment primary fold
CCCn1c(N)c(N2CCCCC2)c(=O)n(CC(=O)Nc2ccccc2C)c1=O | 117.8 | 37.5 | 57.5 | -3.3 | -2.6 | i | 0.95
O=C(COC(=O)COc1ccccc1)Nc1ccc(OC(F)(F)F)cc1 | 83.6 | -18.9 | 107.8 | -9.6 | -1.2 | i | 1.09
CC(=O)N(NC(=O)c1ccccc1Cl)C1CC(=O)N(c2ccc(C)cc2)C1=O (stereo unspecified) | 98.7 | . | . | 20.2 | -3.2 | i | 0.99
O=C(NCCc1ccc(Cl)cc1)C1CCN(c2ncccn2)CC1 | 107.8 | . | . | -2.0 | . | i | 0.97
Cc1cc2oc(=O)cc(CSc3nc(N)cc(N)n3)c2cc1C(C)C | 107.3 | -15.1 | 130.9 | -1.1 | -1.9 | i | 0.87
CC(C)n1ncc2c(C(=O)O)cc(C3CC3)nc21 | 104.0 | . | . | . | . | i | 0.91
Cc1ccc(S(=O)(=O)NCCCCCC(=O)Nc2c(C)n(C)n(-c3ccccc3)c2=O)cc1 | 113.7 | -64.3 | 99.0 | -9.0 | . | i | 1.04
Cn1c(SCC(=O)NCC2CCCO2)nc2c([nH]c3ccccc32)c1=O (stereo unspecified) | 93.2 | -41.7 | 156.7 | -16.1 | -1.8 | i | 0.97
COc1ccc(C(=O)NCC2(c3ccccc3)CCOCC2)cc1 | 98.8 | . | . | . | . | i | 0.96
O=c1c(Cl)nc2cc(Cl)ccc2n1CCNc1ncc(C(F)(F)F)cc1Cl | 100.6 | -35.5 | 156.8 | 10.4 | -3.3 | i | 0.95
